ClpP mod: qHTS Assay for Activators of ClpP; ATP-dependent Clp protease proteolytic subunit (Bacillus subtilis (strain 168)), P80244; purified B. subtilis ClpP, FRET peptide cleavage, 20 min; Potency, µM (highest dose often 57.5 µM), for the others: at the top dose activity change, negative = active; actives 1.9% (n = 340,000); AID 651965, 2013; active = well fitted falling curve with a large enough effect; inconclusive = small, poorly fitted or top-dose-only effect; inactive = no such curve, though single readings can be large or run the other way; note: potency is the fitted concentration of half-maximal effect; the source files actives as falling curves though it sought activators and does not explain the sign; nearly all actives have a fitted effect of over 65% in size; many hits overshoot -100%
Target sequence (P80244 whole entry, looked up): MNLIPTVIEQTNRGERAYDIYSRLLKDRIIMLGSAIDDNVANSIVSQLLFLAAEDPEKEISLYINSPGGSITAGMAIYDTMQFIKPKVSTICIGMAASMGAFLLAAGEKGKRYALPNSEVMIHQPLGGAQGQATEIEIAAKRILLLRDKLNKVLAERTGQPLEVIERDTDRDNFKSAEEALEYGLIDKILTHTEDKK
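Purified B. subtilis ClpP, 10 microg/mL final in Tris/HCl pH8 with KCl, BSA, glycerol and Tween-20, cleaved an Abz/nitrotyrosine-quenched decapeptide. Fluorescence (ex 320, em 430) was read at 0 and 20 min at room temperature. Delta was normalized to 5.8 microM ADEP and DMSO/no-enzyme controls.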
gsp antagonist: gsp mutant antagonism; Potency, µM (top dose mostly 76.9 µM), without a hit: at the highest dose activity change, negative = inhibition, usual class: inhibitors; AID 624288; actives 0.4% (n = 340,000); gsp-mutant cells, cAMP HTRF, 30 min; control for the full effect not named in the record; active = falling curve of any shape with a large fitted effect; inconclusive = falling curve, mostly with a smaller effect; inactive = flat or rising curve; cell line not stated here;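 note: intracellular cAMP measured with PDE inhibitor Ro 20-1724 present during compound exposure; potency is the fitted concentration of half-maximal effect; % is set by controls: 0 for no effect and ±100 for the full control effect; nearly all actives have a fitted effect of over 65% in size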
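HTRF cAMP measurement after 30 min RT detection following 30 min, 37C compound treatment alongside […] (added as 300 uM solution) in G418-selected cells seeded at 2000/well and grown 16–24 h.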
TRPV1 potentiator: enhances activation of the human vanilloid receptor TRPV1; Q8NER1; TRPV1-expressing cells, Fluo-8 calcium influx, capsaicin EC20 potentiation; host cell line not named in the record; control for the full effect not named in the record; potentiation, % at 8.33 µM; actives 0.02% (n = 320,000); active means potentiation above 80%; inconclusive means 30% to 80%; inactive means below 30%; note: 0% is about no effect
Target sequence (Q8NER1 whole entry, looked up): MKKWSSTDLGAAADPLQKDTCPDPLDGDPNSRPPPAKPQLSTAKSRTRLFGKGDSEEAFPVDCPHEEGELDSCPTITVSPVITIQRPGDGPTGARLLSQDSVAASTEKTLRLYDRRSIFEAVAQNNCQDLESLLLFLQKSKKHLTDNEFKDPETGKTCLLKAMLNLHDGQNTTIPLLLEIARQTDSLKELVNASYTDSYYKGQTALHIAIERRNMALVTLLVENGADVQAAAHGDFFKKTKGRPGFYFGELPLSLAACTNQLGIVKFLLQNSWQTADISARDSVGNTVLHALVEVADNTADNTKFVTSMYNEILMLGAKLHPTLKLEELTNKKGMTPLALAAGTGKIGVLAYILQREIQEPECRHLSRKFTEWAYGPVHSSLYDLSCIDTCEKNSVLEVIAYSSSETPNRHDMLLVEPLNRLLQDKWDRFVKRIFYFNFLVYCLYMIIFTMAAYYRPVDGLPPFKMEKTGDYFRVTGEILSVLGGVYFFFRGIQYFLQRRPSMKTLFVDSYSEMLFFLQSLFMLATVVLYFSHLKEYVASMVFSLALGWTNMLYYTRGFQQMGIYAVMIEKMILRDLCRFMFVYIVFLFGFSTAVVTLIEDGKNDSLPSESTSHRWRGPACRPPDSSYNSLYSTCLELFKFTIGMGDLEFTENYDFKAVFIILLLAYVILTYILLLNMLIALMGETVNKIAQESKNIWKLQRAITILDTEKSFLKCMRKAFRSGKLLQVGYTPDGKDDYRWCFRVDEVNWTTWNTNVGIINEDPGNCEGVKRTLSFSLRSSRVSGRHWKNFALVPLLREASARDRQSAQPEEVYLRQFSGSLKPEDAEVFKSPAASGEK
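TRPV1-expressing cells were cultured overnight at 35.5C and loaded with Fluo-8 calcium dye for 40 to 90 min at room temperature. After a 10 s baseline, compound was added and calcium influx was read kinetically for 3 min (ex 480/em 520 nm).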
gsp agonist: agonists of gsp mutant (McCune-Albright syndrome); Potency, µM (doses to about 76.9 µM), inactives show at the top dose activation (cAMP increase), actives largely listed as activators; actives 0.13% (n = 340,000); gsp mutant cells, cAMP HTRF, 30 min; control for the full effect not named in the record; AID 624287; active = well fitted activation curve with a large enough effect; inconclusive = small, poorly fitted or top-dose-only effect, or another doubt; inactive = no such curve, though single readings can be large or run the other way; cell line not stated here;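 note: phosphodiesterase inhibitor Ro 20-1724 added with compounds to block cAMP breakdown; potency is the fitted concentration of half-maximal effect; nearly all actives have a fitted effect of over 60% in size; about a fifth of the inactives were tested at one dose only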
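Cells stably selected in G418 were plated at 2000/well, grown 16-24 hr, then given compounds in DMSO with the PDE inhibitor […] (300 uM solution added) for 30 min at 37C; cAMP was read by HTRF.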
Sfp inh: Sfp phosphopantetheinyl transferase inhibition; Biochemical Sfp PPTase activity, qHTS; Potency, µM, without a hit: max response, negative = inhibition, hits mostly inhibitors; actives 3.5% (n = 310,000); AID 1490; active = well fitted inhibition curve with a large enough effect; inconclusive = small, poorly fitted or top-dose-only effect, or another doubt; inactive = no such curve, though single readings can be large or run the other way;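 note: the enzyme is Sfp with the accession as filed and its product quenches rhodamine fluorescence; potency is the fitted concentration of half-maximal effect; 0% = enzyme reaction without inhibitor and -100% = no enzyme wells; top concentration of the series not given in the record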
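With Hepes-Na pH 7.6 buffer containing 10 mM MgCl2, Sfp (15 nM) modified BHQ-2-YbbR (12.5 uM) using rhodamine-CoA (5 uM). Two reads 30 minutes apart at 525/598 nm yielded each well's rate.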
CtBP-E1A blk: inhibitors of CtBP/E1A interaction. AlphaScreen GST-E1A/His-CtBP binding, 1536-well; stronger effect = lower value; control for the full effect not named in the record. activity change, % (no concentration beside the values). actives 0.49% (n = 340,000); in the data active means activity change below about -65%; inconclusive means about -30% to -65%; inactive means above about -30%; note: % is set by controls: 0 for no effect and ±100 for the full control effect; compound concentration not given in the record
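Homogeneous bead-based format: GST-tagged E1A captured on glutathione donor beads, His-tagged CtBP on nickel acceptor beads; compounds precede bead addition by 2 h at 37 °C.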
Menin MLL FP FL: inhibitors of human menin-MLL interaction, wild-type MLL peptide; 290,000 tested, under 10 active; FP activity change, % at 61.4 µM; AID 1766; Fluorescence polarization, fluorescein-MLL peptide displacement from menin; inconclusive = falling polarisation curve, or a change in total fluorescence; inactive = total fluorescence flat and polarisation flat or rising; no compound was filed as active; the % refers to the polarisation; negative = inhibition;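 note: % of control where 0% means no effect; inhibitors lower the polarisation; unlabelled MLL peptide was the positive control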
An asterisk follows results filed as active; u = inconclusive; x = not tested or not shown; & = joins results of further samples; [ ] = remark or other dose. Compounds were not picked by outcome (roughly 5.3% active in at least one column).

SMILES | ClpP mod | gsp antagonist | TRPV1 potentiator | gsp agonist | Sfp inh | CtBP-E1A blk | Menin MLL FP FL
Clc1ccc(-c2nnc3sc(-c4ccco4)nn23)c(Cl)c1 | x | x | u | x | 13% | x | -6.1
Cc1ccc(NC(=O)CCN2CC(C)OC(C)C2)cc1C (configuration not stated) | 1.1% | 10% | -2 | 3% | 12% | 5 | -6.3
CN(CC(=O)NCc1ccccc1Cl)CC(=O)Nc1ccccc1Br | -0.7% | -3% | -20 | 12% | x | 0 | x
COc1ccc(-n2cc(CNC3CCOCC3)c(-c3cccc(F)c3)n2)cc1 | x | 0% | -10 | -3%[15.4 µM] | -4% | -18 | 1.6
O=C(N/N=C/c1ccccc1)c1c(O)c2ccccc2[nH]c1=O | 0.6% | 0% | 0 | 6%[15.4 µM] | 3% | -1 | -1.1
O=C1Nc2ccc(S(=O)(=O)NCc3ccco3)c3cccc1c23 | -19% | 18% | x | 12% | x | -16 | x
Cc1ccc2nc(CSc3nc(C)cc(C)c3C#N)[nH]c2c1 | -22% | 13% | -6 | -6% | -2% | -2 | 6.2
O=C(N1CCOCC1)C12CC3CC(C1)CC(c1ccccc1)(C3)C2 | -1.1% | -3% | -16 | 4% | 16% | -1 | -0.7
COc1ccc(S(=O)(=O)N2CCCCC2)cc1C(=O)Nc1cc(C)on1 | -2.2% | 2% | -7 | 8% | 24% | 0 | -0.3
O=C(Nc1ccc(F)cc1)C(=O)C1C(=O)Nc2ccccc21 (configuration not stated) | 0.4% | -19% | x | 1% | 19% | 10 | -0.9
CCC(C)(C)NC(=O)C(c1cccs1)N(C(=O)c1ccn[nH]1)c1ccccc1 (configuration not stated) | -0.7% | -2% | -18 | u | 9% | -8 | 2.9
c1coc(Cn2c(SCc3nc4ccccc4[nH]3)nnc2-c2cccs2)c1 | -3.1% | 5% | 1 | 22% | 14% | 5 | -0.1
O=C(CN(CC1CCCO1)C(=O)CNS(=O)(=O)c1ccc(Cl)cc1)NC1CCCCC1 (configuration not stated) | -2.9% | 10% | 9 | -1%[15.4 µM] | 6% | -3 | -2.1
COc1ccc(C(C)=O)cc1CN1C(=O)C(C)N(c2ccc(C)cc2)C1=O (configuration not stated) | 0.1% | -27% | -14 | -31%[inhibitor] | 1% | 2 | 1.0
COc1ccccc1NC(=O)CSc1nnc(NC(=O)c2ccco2)s1 | -1.2% | -31% | 8 | -30%[inhibitor] | 9% | -1 | x
CN(C)c1ccc(S(=O)(=O)NCC(=O)NCc2ccccc2)cc1[N+](=O)[O-] | -2.3% | -6% | 1 | -16% | -11% | x | -5.1
CC(=O)C1=C(O)C(=O)N(CCN2CCOCC2)C1c1ccccc1 (configuration not stated) | -4.4% | 4% | 9 | -41%[inhibitor] | -11% | 8 | 0.0
Cc1cc(NS(=O)(=O)c2ccc(NC(=O)c3ccc(Cl)cc3Cl)cc2)no1 | 0.3% | u | u | 5%[15.4 µM] | 7% | 0 | 2.0
Cc1ccc(NC(=O)COC(=O)CCC(=O)c2cccs2)cc1C | x | 8% | -17 | -2%[15.4 µM] | 16% | -3 | 2.4
O=C(COC(=O)c1cnccn1)c1ccc([N+](=O)[O-])cc1 | x | 2% | -5 | 8% | 20µM* | -11 | 4.8
O=c1[nH]c(-c2ccccc2)ncc1OCc1ccccc1 | 0.8% | 6% | x | 8% | x | 2 | x
Cc1cc([N+](=O)[O-])nn1Cc1ccccc1F | 1.0% | 1% | x | 5% | 20% | 15 | 3.2
Cc1cc(C)c(OCCCCN2CCC(C)CC2)c(Br)c1 | -0.5% | 10% | 2 | 5%[15.4 µM] | -3% | 4 | -2.2
c1ccc(OCCCn2nnc(-c3cccnc3)n2)cc1 | -1.3% | 11% | 8 | -1% | 20% | -3 | 0.5
CCC(=O)NC(=S)Nc1ccccc1OC | 1.4% | -2% | -44 | -40%[inhibitor] | 10% | -9 | 6.1
CN1CCN(C(=O)c2ccc(Cl)cc2)CC1 | 0.8% | 5% | -1 | 4%[15.4 µM] | -1% | 2 | 2.9
CCOc1cccc(C(=O)NC(=S)Nc2cccc(NC(=O)c3ccccc3Cl)c2)c1 | 0.9% | 4% | 27 | 9% | 14% | -13 | 2.1
COc1cc(OC)cc(C(=O)Nc2ccc(NC(=O)c3ccco3)c(Cl)c2)c1 | -0.7% | -3% | 11 | 2%[15.4 µM] | 6% | -22 | -0.9
CC(OCC(O)CNCC1COc2ccccc2O1)c1ccc(Cl)cc1 (configuration not stated) | x | -14% | 6 | -18%[15.4 µM] | -14% | 1 | -2.5
COCC(C)n1c(C)cc(C(=O)COC(=O)c2cnc(Cl)c(Cl)c2)c1C (configuration not stated) | -0.8% | -26% | x | -46%[inhibitor] | x | u | x
COc1cc(OC)c(NC(=O)Cc2cccs2)cc1Cl | 0.8% | -9% | -5 | -9%[15.4 µM] | 3% | 0 | -0.6
CCOc1ccc(C(=O)NCC(=O)OCC(=O)Nc2cccc(S(=O)(=O)N3CCCC3)c2)cc1 | -1.0% | -2% | 7 | -7% | -10% | x | 0.7
O=C(Cc1ccc(Cl)c(Cl)c1)N/N=C/c1cccnc1 | -1.4% | -3% | -3 | -39%[inhibitor] | 6% | 2 | 3.6
C=CCn1c(SCC(=O)Nc2nccs2)nnc1-c1cc2cccc(OC)c2o1 | u | 4% | -2 | -2% | -12% | -1 | 7.0
C/C=C(\C)C(=O)Nc1cccc(C2=NOC3(C2)C[C@@H](C(N)=O)N(C(=O)c2ccccc2C(=O)c2ccccc2)C3)c1 (some centres not stated) | 0.3% | 1% | -52 | x | 0% | -3 | 14
N#Cc1c(F)cccc1N1CCN(Cc2ccc3c(c2)OCO3)CC1 | x | -22% | 11 | 21% | 0% | -3 | -3.8
CN1CCN(c2nc3c(c(=O)[nH]c(=O)n3C)n2Cc2ccccc2F)CC1 | -6.7% | 9% | 0 | -4%[15.4 µM] | 12% | 8 | 3.2
O=C1OC(c2ccccc2)=C/C1=C\N1CCOCC1 | -1.3% | u | -19 | 27% | u | 3 | 16
O[C@@H]1CN(Cc2cccs2)[C@@H](c2ccccc2)C[C@H]1n1cc(-c2ccc(F)cc2)nn1 | -2.5% | x | x | -5% | x | -1 | x
COc1ccc(CC(C)N2CCN(c3ccccc3)CC2)cc1OC (configuration not stated) | 2.0% | 12% | 8 | -1% | 12% | 0 | 4.8
Nc1nccnc1C(=O)OCC(=O)NNC(=O)c1ccccc1 | 3.2% | -3% | 15 | 0% | 12% | -1 | x
O=C(Nc1nc(-c2ccc(Cl)cc2)cs1)c1cccnc1 | -0.6% | -3% | 3 | -13% | -7% | -4 | -0.4
O=C(NCc1cccnc1)c1ccccc1NS(=O)(=O)c1ccc(F)cc1F | -5.9% | 0% | 6 | u | 11% | 5 | 2.5
Cc1ccccc1Oc1ccc2c(c1)[C@@H]1C[C@H]3[C@@H](C(=O)N1CC2)[C@H](C)ON3C | -4.3% | -12% | x | x | x | -3 | x
COc1ccccc1NC(=O)COC(=O)c1cc([N+](=O)[O-])ccc1N1CCCC1 | 1.6% | -17% | 23 | u | x | x | x
Fc1ccccc1CNC(=S)NCc1ccc(Cl)cc1 | 0.4% | 8% | 9 | -37%[inhibitor] | 5% | -21 | -0.4
CC(=O)Nc1ccc(NC(=O)C/C(C)=N/NC(=O)C(=O)N2CCCC2)cc1 | 0.8% | 10% | -6 | -20% | -12% | 3 | 4.2
COc1ccccc1C(=O)NCCCNc1nc2cc(C)cc(C)c2cc1C#N | 4.3% | x | x | -27% | x | -13 | x
CCOC(=O)c1ccc(NC(=O)C2CCCN(c3cnccn3)C2)cc1 (configuration not stated) | u | -4% | -13 | -2% | -7% | -14 | 0.7
O=C1CC[C@@H](CN(Cc2ccccn2)Cc2nc(-c3ccc(C(F)(F)F)cc3)no2)N1 | -0.8% | 15% | -9 | 15% | -11% | x | -5.9
CC(=O)c1ccc(N2CCN(C(=O)COc3ccc4ccccc4c3)CC2)cc1 | 2.9% | x | x | 0% | x | 4 | x
N#Cc1ccsc1NC(=O)c1cnccn1 | -3.1% | 7% | 0 | 7% | 50µM* | -30 | 7.5
CCn1c2ccccc2c2nnc(SCC(=O)NC3CCS(=O)(=O)C3)nc21 (configuration not stated) | -1.2% | 10% | 23 | -3% | -5% | -9 | -0.9
COc1cc(OC)cc(C(=O)O/N=C(\N)c2ccccn2)c1 | 3.4% | -9% | -1 | -37%[inhibitor] | 5% | x | 0.3
Cc1ccc(C(C)C)c(OCC(=O)N/N=C/c2ccc(S(=O)(=O)O)o2)c1 | 2.3% | -5% | 29 | 11% | 21% | x | -0.2
COC(=O)c1ccc(C)c(NC(=O)c2nn(C)c(=O)c3ccccc23)c1 | -1.3% | 6% | 8 | -20% | 1% | 2 | -2.1
C/C(=N\NC(=O)Cn1nc(C)c([N+](=O)[O-])c1C)c1ccc(O)cc1 | -3.0% | 12% | 16 | -38%[inhibitor] | -1% | 0 | 1.2
COC(=O)CCNC(=O)CCc1ccc(S(=O)(=O)N2CCCCCC2)cc1 | 0.2% | -2% | -15 | 1% | x | 5 | x
Cc1ccc(Nc2nc(-c3c(C)nc4ccccn34)cs2)cc1 | 28µM* | u | 0 | -46%[inhibitor] | 45µM* | -17 | 1.7
C/C(=N/NC(=O)CNC(=O)COc1cccc(C)c1)c1ccco1 | 0.0% | 2% | 6 | 7%[15.4 µM] | 4% | 9 | -0.8

(more compounds)
SMILES | ClpP mod | gsp antagonist | TRPV1 potentiator | gsp agonist | Sfp inh | CtBP-E1A blk | Menin MLL FP FL
COC(=O)C1CCN(C(=O)c2ccc(OC3CCN(Cc4ccccn4)CC3)cc2)CC1 | x | -23% | 2 | 1%[15.4 µM] | 1% | -6 | -0.5
O=[N+]([O-])c1ccc(CSC2=NCCN2)cc1 | 0.3% | 6% | 6 | -23% | 9% | x | -3.8
N#C/C(=C\c1ccc(O)c(O)c1)C(=O)NCCc1ccccc1 | 0.4%&1.9% | -25% | -15 | x | x | -21 | u
O=C(NCc1nnc(SCC(=O)N2CCN(c3ccccc3)CC2)o1)c1c(F)cccc1F | -3.1% | -7% | 11 | -37% | 5% | -1 | 0.4

Bioassay records from PubChem BioAssay.
